# Bioassay records from PubChem.
# Vaccinia Venus = qHTS for Stage-Specific Inhibitors of Vaccinia Orthopoxvirus: Venus Reporter Primary qHTS | Vaccinia virus Venus reporter expression, fluorescence | Potency, µM (doses to about 36.5 µM), for the others: at the highest dose activity change, negative = inhibition, most hits filed as inhibitors | 330,000 compounds, 0.46% hits; active means well fitted inhibition curve with a large enough effect; inconclusive means small, poorly fitted or top-dose-only effect; inactive means no such curve, though single readings can be large or run the other way; tested in A549 cells; further: nearly all actives have a fitted effect of over 30% in size; inactives centre near -10
# VACV mCherry inh = qHTS for Stage-Specific Inhibitors of Vaccinia Orthopoxvirus: mCherry Reporter Primary qHTS | Vaccinia virus mCherry reporter infection, fluorescence; about a quarter of the inactives have no number | Potency, µM (titrated, usually from 36.5 µM), for the others: top-dose activity change, negative = inhibition, most hits filed as inhibitors | 310,000 compounds, 0.63% hits | AID 720579, 2013; active = well fitted inhibition curve with a large enough effect; inconclusive = small, poorly fitted or top-dose-only effect; inactive = no such curve, though single readings can be large or run the other way; tested in A549 cells; further: nearly all actives have a fitted effect of over 35% in size; inactives centre near -10
# Numbers without * were called inactive; i = inactive; ? = inconclusive; · = no result given; & = joins results of further samples; [ ] = dose if it differs, or a comment. On the % scale 0 is the no-effect control and ±100 the full control effect; potency means the concentration at half of the fitted maximal effect. Random draw from the library (roughly 0.87% active in at least one column).
no.	smiles	Vaccinia Venus	VACV mCherry inh
1	Cc1c(N(C(=O)c2ccccn2)C2(C(=O)NC3CCCCC3)CCCCC2)c(=O)n(-c2ccccc2)n1C	-15%	-9%
2	C=CCC(CC=C)(CNC(=O)C(=O)Nc1cc(C)ccc1OC)c1ccc(OC)c(OC)c1	-14%	-9%
3	C=C(C)Cn1c(SCC(=O)NCc2ccco2)nc2sc3c(c2c1=O)CCC3	-12%	-22%
4	COc1ccc(C(=O)c2cc([N+](=O)[O-])ccc2N2CCOCC2)cc1	?	?
5	CCOC(=O)c1c(NC(=O)C(C)Sc2cn(C)c3ccccc23)sc2c1CCC2 (stereo not given)	-6%	?
6	COc1ccc(Nc2nc(-c3cccc(Cl)c3)c3c(n2)-c2ccccc2OC3)cc1	-7%	-6%
7	Cc1ccc[n+](CC(=O)Nc2cccc(Cl)c2)c1	-11%	i
8	NS(=O)(=O)c1ccc(CCn2c(=S)[nH]c3ccc(F)cc3c2=O)cc1	-23%	i
9	CC(OC(=O)c1ccc(NS(=O)(=O)c2ccc3[nH]c(=O)[nH]c3c2)cc1)C(N)=O (stereo not given)	-1%	-18%
10	CC(C)(C)c1ccc(C(=O)NCc2nnc(SCC(=O)N3CCCc4ccccc43)n2-c2ccccc2)cc1	0%	-6%
11	NC(=O)C1(N2CCCCC2)CCN(C(=S)Nc2ccc(S(N)(=O)=O)cc2)CC1	-8%	i
12	CCN(CC)c1nc2ccccc2nc1C(=O)Nc1cccc(C(C)=O)c1	-15%	34%[activator]
13	Clc1ccc(C[n+]2cc(-c3ccccc3)n3c2CCC3)cc1	-10%	i
14	C[C@H](NC(=O)c1ncn2c1C(=O)N(C)CC2)C(=O)OC(C)(C)C	3%	i
15	Cc1cccc2cc(CN(C(=S)NCC(C)C)C3CCCC3)c(=O)[nH]c12	-21%	-12%
16	CCCCNS(=O)(=O)c1ccc2nc(-c3cccnc3)cc(C(=O)NCCCOC)c2c1	5%	8%
17	CCOc1ccc(CC(=O)NCCS(=O)(=O)N2CCN(c3ccccc3OC)CC2)cc1	-27%	-24%
18	Cc1ccnc(NC(=O)c2ccoc2C)c1	-7%	-17%
19	CCN(CC)C(=O)c1ccc(NC(=O)c2ccc(-c3nn(C)c(=O)c4ccccc34)cc2)cc1	6%&-14%	9%&-23%
20	O=C(c1ccc2c(c1)N(Cc1ccc(F)cc1Cl)C(=O)c1ccccc1S2)N1CCC2(CC1)OCCO2	-3%	-3%
21	Cc1ccc(SC(=O)c2c(C)noc2-c2cc(C)on2)cc1	-6%	?
22	CCOc1cccc(/C=N/NC(=O)c2ccc3c(c2)OCCO3)c1O	?	?
23	COCCn1nnnc1C(c1cc2cc(C)ccc2[nH]c1=O)N1CCCCCC1 (stereo not given)	-13%	-11%
24	Cc1nnc(N2CCCC(C(=O)NCCN(C)C)C2)c2nn(-c3ccccc3)c(C)c12 (stereo not given)	-7%	-5%
25	CCC1=NN(C(=O)Cc2ccc([N+](=O)[O-])cc2)C(O)(c2ccc(Br)cc2)C1 (stereo not given)	-11%	-27%
26	Cc1cccc(Cn2ccc(-c3ccc(Cl)cc3)c(C#N)c2=O)c1	12%	·
27	Nc1nnn(CC(=O)N/N=C/c2cccc3ccccc23)n1	-17%	i
28	O=C(CSCc1ccc(Cl)cc1Cl)Nc1ccccc1C(=O)Nc1ccc(C(=O)O)cc1	-7%	-8%
29	NS(=O)(=O)c1ccc(NC(=O)CN2CCCN(S(=O)(=O)c3ccc(F)cc3)CC2)cc1	-3%	-10%
30	COc1cccc(C(=O)Nc2cc3c4c(c2)CC(=O)N4CCC3)c1	-10%	-15%
31	CCOC(=O)c1c(C)n(C(C)C)c2ccc(OC)cc12	-14%	i
32	COc1cc(Cl)c(C)cc1NC(=O)Cn1cc(S(=O)(=O)N2CCN(c3ccccc3F)CC2)c2ccccc2c1=O	2%	0%
33	CC(C)c1onc(C(=O)NCc2ccc(Cl)cc2)c1[N+](=O)[O-]	-7%	-12%
34	COc1ccc(-c2cc(C(=O)NCCCn3ccnc3)c3ccccc3n2)c(OC)c1	8%	-7%
35	CS(=O)(=O)N1CCc2cc(C(=O)NC3CC3)ccc21	-7%	i
36	Nc1c(-c2nc(-c3ccc(F)cc3)cs2)c2ccccn2c1C(=O)c1ccc2c(c1)OCO2	1%	-8%
37	COc1cccc(C(=O)NCC(=O)N2CCC(C)CC2)c1	-4%	·
38	Cc1ccc(C(=O)N/N=C\c2ccccn2)cn1	-10%	-17%
39	O=C(COC(=O)c1cccnc1Cl)c1ccc(OC(F)F)cc1	-2%	-10%
40	COc1ccc(C(=O)COC(=O)CCCN=C2NS(=O)(=O)c3ccccc32)c(OC)c1	-13%	-13%
41	COC(=O)C(CC(C)C)N(Cc1cc(OC)cc(OC)c1)S(=O)(=O)c1ccccc1Br (stereo not given)	-3%	i
42	COC(=O)c1ccccc1NC(=O)C1CCCO1 (stereo not given)	-4%	2%
43	CC(=O)c1c(C)nc(-c2cccc([N+](=O)[O-])c2)n1O	8%	-6%
44	CCN(CC)CCNC(=O)C(=O)Nc1cc2c3c(c1)CC(=O)N3CCC2	-10%	-15%
45	C=CCN(c1ccccc1)S(=O)(=O)c1cccc(C(=O)Nc2ccc(N3CCOCC3)cc2)c1	?	?
46	CCNC(=S)NNC(=O)CCn1cc(C)cn1	-16%	-16%
47	COc1ccc(CCNC(=O)[C@H](C)NC(=O)N2CCn3c2nc2ccccc23)cc1OC	-11%	-18%
48	C/C(=N\O)c1ccc2c3c([nH]c2c1)CCCC3	-25%	·
49	N#CCSc1nc2c(c(=O)n1Cc1ccccc1)C1(CCCC1)Cc1ccccc1-2	-24%	·
50	Cc1c(Nc2nc3ccccc3nc2NS(=O)(=O)c2ccccc2)c(=O)n(-c2ccccc2)n1C	-4%	i

# Next section.
no.	smiles	Vaccinia Venus	VACV mCherry inh
51	COC(=O)c1cc2occc2n1Cc1nc(-c2ccccc2Cl)oc1C	2%	?
52	CCC/C(=N\NC(=O)c1ccccc1C)c1ccccc1	-5%	-12%
53	CCOc1ccccc1OCCC(=O)Nc1ccc(F)c(Cl)c1	-8%	i
54	CN(C)c1ccc(/C=N/NC(=O)C(=O)N2CCCCCC2)cc1	0%	-7%
55	CCN1CCN(C(=O)C(=O)c2cn(CC(=O)N3CCCC3)c3ccccc23)CC1	-6%	-5%
56	N#CC1=C(SCc2ccccc2)NC(=O)CC1c1ccccc1 (stereo not given)	-6%	-10%
57	COc1ccc(CCNC(=O)CSc2nnc(CNC(=O)c3ccco3)o2)cc1OC	-9%	-26%
58	CCC(C)Sc1ccc([C@@H]2[C@@H]3C(=O)N(C)C(=O)[C@@H]3[C@]3(C(=O)OC)CCCCN23)cc1 (stereo not given in full)	?	-3%
59	C#Cc1ccc([C@@H]2C=C(C(=O)N3CCOCC3)O[C@H](OCCCCO)C2)cc1	-9%	i
60	O=C(Nc1ccc(Cl)c(Cl)c1)OCc1cncs1	?	·
61	COc1ccc2c(c1O)-c1c(OC)c(OC)cc3c1[C@@H](C2)N(C)CC3	-21%	i
62	Cc1ccc(Cn2cccc(C(=O)Nc3ccc4c(c3)OCO4)c2=O)cc1	-7%	-6%
63	CCCCC[C@@H]1[C@@H]2C(=C(OCC)C[C@@H]3C(=O)N(c4ccccc4)C(=O)[C@H]23)[C@H](c2ccccc2)N1S(=O)(=O)c1ccc(C)cc1	-8%	-6%
64	O=C(CCn1cncn1)N1CCN(S(=O)(=O)c2ccc(Cl)cc2)CC1	-7%	0%
65	CCN(CC)c1ccc(S(=O)(=O)N(CC)CC)cc1NC(=O)C1CCCC1	-13%	-2%
66	CCn1c(COc2cccc(C)c2C)nnc1SCC(=O)Nc1cc(C)on1	4%	3%
67	Cc1cc(C)cc(NC(=O)C2CCN(S(C)(=O)=O)CC2)c1	0%	-12%
68	Cn1cc(C(=O)N/N=C/C2=C(N3CCOCC3)C(=C\c3ccccc3)/CC2)ccc1=O	-10%	i
69	COc1ccc(C2=Nc3ccccc3NC(=O)C2N(C(=O)c2cnc(C)cn2)c2ccc(N3CCOCC3)cc2)cc1 (stereo not given)	-11%	28%
70	O=C(CSc1nc2c(oc3ccccc32)c(=O)n1Cc1ccco1)Nc1ccccc1	-19%	-20%
71	O=C(CNCCC1=CCCCC1)Nc1ccc(N2CCCCCC2)cc1	?	-27%
72	CCOC(=O)N1CCC2(CC1)NCCc1c2[nH]c2ccccc12	-8%	-19%
73	COC(=O)c1ccccc1NC(=O)CN1CCN(C23CC4CC(CC(C4)C2)C3)CC1	-11%	-20%
74	COCCCNC(=O)c1nc2c(nnn2Cc2cc(C)ccc2C)c(=O)[nH]1	-9%	-14%
75	CC(C)NC(=O)c1cc(C2CCCCN2C(=O)CCCc2ccccc2)on1 (stereo not given)	0%	-1%
76	CC1=CC(C)CC(C)OC(=O)CC(c2ccc(O)cc2)NC(=O)C(Cc2c(Br)[nH]c3ccccc23)N(C)C(=O)C(C)NC(=O)C(C)C1 (stereo not given)	35µM*	32µM*
77	COc1ccccc1NC(=O)c1ccccc1NC(=O)c1cccs1	-1%	-21%
78	CC(O)(c1ccc(F)c(F)c1)c1nc(-c2cccc(F)c2)cs1 (stereo not given)	-12%	-8%
79	CCc1cc(C(c2ccccc2OC)N2CCOCC2)c(NC(=O)c2ccccc2)s1 (stereo not given)	-10%	·
80	CSc1ccccc1C(=O)NCc1ccc(F)cc1	-12%	i
81	COC(=O)c1ccc2nc(C)cc(Nc3cccc(Cl)c3C)c2c1	-13%	-14%
82	CC/C(=N\NC(=O)c1ccoc1C)c1ccc(C)o1	-12%	-19%
83	O=C(CN1C(=O)/C(=C/c2cccc(Cl)c2)SC1=S)NC1C=CS(=O)(=O)C1 (stereo not given)	11%	?
84	CCOC(=O)c1ccc(NC(=O)CC2NCCNC2=O)cc1 (stereo not given)	-4%&-11%	-9%&-11%
85	O=C(Nc1ccccc1)N1CCC(C(=O)N2CCN(c3ccccc3F)CC2)CC1	-12%	i

# 2 compounds picked at random from those above, as already listed:
no.	smiles	Vaccinia Venus	VACV mCherry inh
82	CC/C(=N\NC(=O)c1ccoc1C)c1ccc(C)o1	-12%	-19%
83	O=C(CN1C(=O)/C(=C/c2cccc(Cl)c2)SC1=S)NC1C=CS(=O)(=O)C1 (stereo not given)	11%	?

# Gathered by group: the compounds so far with an aryl methoxy group.
no.	smiles	Vaccinia Venus	VACV mCherry inh
2	C=CCC(CC=C)(CNC(=O)C(=O)Nc1cc(C)ccc1OC)c1ccc(OC)c(OC)c1	-14%	-9%
4	COc1ccc(C(=O)c2cc([N+](=O)[O-])ccc2N2CCOCC2)cc1	?	?
6	COc1ccc(Nc2nc(-c3cccc(Cl)c3)c3c(n2)-c2ccccc2OC3)cc1	-7%	-6%
17	CCOc1ccc(CC(=O)NCCS(=O)(=O)N2CCN(c3ccccc3OC)CC2)cc1	-27%	-24%
30	COc1cccc(C(=O)Nc2cc3c4c(c2)CC(=O)N4CCC3)c1	-10%	-15%
31	CCOC(=O)c1c(C)n(C(C)C)c2ccc(OC)cc12	-14%	i
32	COc1cc(Cl)c(C)cc1NC(=O)Cn1cc(S(=O)(=O)N2CCN(c3ccccc3F)CC2)c2ccccc2c1=O	2%	0%
34	COc1ccc(-c2cc(C(=O)NCCCn3ccnc3)c3ccccc3n2)c(OC)c1	8%	-7%
37	COc1cccc(C(=O)NCC(=O)N2CCC(C)CC2)c1	-4%	·
40	COc1ccc(C(=O)COC(=O)CCCN=C2NS(=O)(=O)c3ccccc32)c(OC)c1	-13%	-13%
41	COC(=O)C(CC(C)C)N(Cc1cc(OC)cc(OC)c1)S(=O)(=O)c1ccccc1Br (stereo not given)	-3%	i
47	COc1ccc(CCNC(=O)[C@H](C)NC(=O)N2CCn3c2nc2ccccc23)cc1OC	-11%	-18%
57	COc1ccc(CCNC(=O)CSc2nnc(CNC(=O)c3ccco3)o2)cc1OC	-9%	-26%
61	COc1ccc2c(c1O)-c1c(OC)c(OC)cc3c1[C@@H](C2)N(C)CC3	-21%	i
69	COc1ccc(C2=Nc3ccccc3NC(=O)C2N(C(=O)c2cnc(C)cn2)c2ccc(N3CCOCC3)cc2)cc1 (stereo not given)	-11%	28%
77	COc1ccccc1NC(=O)c1ccccc1NC(=O)c1cccs1	-1%	-21%
79	CCc1cc(C(c2ccccc2OC)N2CCOCC2)c(NC(=O)c2ccccc2)s1 (stereo not given)	-10%	·
